E coli growth – blocks Escherichia coli growth; OD600 absorbance (no concentration beside the values); actives 0.21% (n = 330,000); AID 1053175; OD600, 23 h; active compounds read low;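 active means OD600 absorbance below the run mean of sample wells minus 3.6 SD, in any replicate, cut at about 0.56 in these data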;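 further: stock transfer was 300 nL into about 60 µL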
Beta apoptosis – blocks beta cell apoptosis | INS-1E cytokine-induced death, ATP luminescence, 48 h; percent of positive-control rescue, neutral wells zero | protection from apoptosis, % (concentration not given with the values) | actives 0.8% (n = 300,000) | AID 435005;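 active means all replicates at 75% or more, or half of them and the mean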;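 further: 0% = cytokine-treated negative control wells and 100% = positive control rescue; higher means more ATP so stronger rescue from cytokine killing; wells of about 40 µL received 100 nL stock; the first replicate is given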
Bfl-1 A1 inh – inhibitors of the anti-apoptotic protein A1, read as caspase activation; MEF A1-2A-BIM cells, Caspase-Glo 3/7 luminescence, 3 h; percent of clofoctol response, vehicle zero; caspase activation, % (test concentration not listed); actives 0.066% (n = 330,000); AID 2462;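 active means over half of replicate activation scores above 10%, or exactly half above 10 with the replicate mean above 10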;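 further: wells of about 30 µL received 50 nL stock; many hits fall short of the cut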
UCH37 DUB inh – blocks the human deubiquitinase UCH37 | purified proteasome/UCH37, Ub-AMC cleavage fluorescence | inhibition, % (test concentration not listed) | actives 0.33% (n = 330,000);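 active means mean of two replicates above 20%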;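 further: 0% = compound-free wells with enzyme and 100% = wells lacking proteasome; stock transfer was 100 nL into about 20 µL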
Target sequence (Q9Y5K5 whole entry, looked up): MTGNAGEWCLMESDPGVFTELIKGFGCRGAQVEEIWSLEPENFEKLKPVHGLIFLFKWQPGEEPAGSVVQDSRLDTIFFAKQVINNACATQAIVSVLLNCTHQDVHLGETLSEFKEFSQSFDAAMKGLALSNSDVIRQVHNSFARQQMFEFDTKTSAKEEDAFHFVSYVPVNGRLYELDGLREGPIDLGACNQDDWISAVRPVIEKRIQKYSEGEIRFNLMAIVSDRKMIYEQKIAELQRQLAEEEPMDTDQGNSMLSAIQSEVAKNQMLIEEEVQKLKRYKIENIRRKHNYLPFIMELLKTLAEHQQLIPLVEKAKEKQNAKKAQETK
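System: Proteasome-associated human UCH37 deubiquitinase; Input: 0.15 nM proteasome in added enzyme buffer; Also added: Ub-AMC substrate from 1 µM stock; Incubation: 30 min compound-proteasome preincubation then 25 min substrate reaction, room temperature; Detection: fluorescence, ex 355 nm, em 460 nm; Read-out: % inhibition of Ub-AMC cleavage fluorescence; Benchmarks: no-proteasome and no-compound wells.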
FGF22 binding – shifts melting point of recombinant human FGF22; Q9HCT0; actives 1.5% (n = 340,000); calls only at 9.99 µM; recombinant FGF22 thermal shift, SYPRO orange fluorescence; percent of sucrose octasulfate shift, DMSO zero;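 active means melting point raised past a set limit in the mean and every replicate; three in four hits are not shown here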
Target sequence (Q9HCT0 whole entry, looked up): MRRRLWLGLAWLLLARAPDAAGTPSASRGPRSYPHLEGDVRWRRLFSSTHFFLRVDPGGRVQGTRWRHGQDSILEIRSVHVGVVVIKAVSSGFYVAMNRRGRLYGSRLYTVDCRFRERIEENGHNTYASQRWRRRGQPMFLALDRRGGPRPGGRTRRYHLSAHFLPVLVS
MLL AF4-AF9 inh – MLL-AF4/AF9 protein interaction inhibition. P42568. AlphaScreen, biotin-AF4 peptide binding to FLAG-AF9. inhibition, % at 10 µM. actives 0.47% (n = 350,000). AID 651704;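 active means every replicate reaching a set inhibition limit, whatever the replicate mean, cut at about 25% in these data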;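 further: 0% = plate neutral control median and 100% = total signal loss; the record names both 10 and 1 µM as test concentration; the first replicate is given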
Target sequence (P42568 whole entry, looked up): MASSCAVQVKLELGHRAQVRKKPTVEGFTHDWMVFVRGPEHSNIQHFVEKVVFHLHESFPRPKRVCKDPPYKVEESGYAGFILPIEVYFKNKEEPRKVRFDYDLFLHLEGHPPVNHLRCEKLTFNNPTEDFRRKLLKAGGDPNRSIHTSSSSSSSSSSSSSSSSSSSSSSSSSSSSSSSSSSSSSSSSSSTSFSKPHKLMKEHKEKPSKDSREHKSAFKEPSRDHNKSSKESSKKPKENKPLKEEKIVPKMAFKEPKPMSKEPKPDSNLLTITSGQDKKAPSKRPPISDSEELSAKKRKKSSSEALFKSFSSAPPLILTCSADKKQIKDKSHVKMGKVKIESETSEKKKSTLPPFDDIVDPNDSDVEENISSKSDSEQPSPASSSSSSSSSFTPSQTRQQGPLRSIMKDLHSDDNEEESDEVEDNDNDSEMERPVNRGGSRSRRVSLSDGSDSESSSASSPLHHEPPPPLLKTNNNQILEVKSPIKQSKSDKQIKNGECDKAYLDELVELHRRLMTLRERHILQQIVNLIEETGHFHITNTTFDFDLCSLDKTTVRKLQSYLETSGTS
T cruzi repl – blocks replication of Trypanosoma cruzi | inhibition, % (no concentration beside the values) | AID 1885 | T. cruzi beta-gal in NIH3T3, luminescence, 90 h | actives 1.4% (n = 300,000);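 active means mean inhibition across valid replicates above about 55%, limit read from the data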;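 further: signal also drops with host cell toxicity which is not excluded here; 0% = plate median of DMSO wells and 100% = zero luminescence signal; higher percent means less beta-gal luminescence so fewer parasites; stock transfer was 50 nL into about 50 µL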
Ecoli rRNA inh – inhibitors of bacterial rRNA selective over humanized ribosomes. E. coli WT GFP vs humanized-ribosome RFP mutants, fluorescence, 24 h; active compounds read low; DMSO median 0, no signal -100. GFP signal change (wild-type ribosome), % (test concentration not listed). actives 1.6% (n = 350,000);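 active means significant combined selectivity score with lowered wild-type GFP, culture density cut under 30%, mutant RFP and density less affected; inactive means any of these conditions unmet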; further: one replicate is shown; some compounds called inactive have numbers as strong as hits
Ecoli rRNA inh OD600 – also measured in Ecoli rRNA inh; calls as there; OD600 change, %; measured here: OD600 growth;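 optical density of the mix in the first replicate; 0 = DMSO median and -100 = no signal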
Ecoli rRNA inh RFP – recorded beside Ecoli rRNA inh, whose call it bears; RFP signal change, %; measured here: RFP humanized mutant strains;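 first replicate; 0 = DMSO median and -100 = no signal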
Starred values were filed as active, the others as inactive.

Results for CC1(C)Cc2nc3sc4c(=O)[nH]cnc4c3cc2CS1 ?
E coli growth: 0.689; Beta apoptosis: -1.5; Bfl-1 A1 inh: 0.2; UCH37 DUB inh: -0.5; T cruzi repl: 2.2

What do the screens show for `Cc1cc(S(=O)(=O)NC2CCCCC2)ccc1OCC(=O)NCc1cccnc1`?
E coli growth: 0.699; Beta apoptosis: 6.1; Bfl-1 A1 inh: -0.1; UCH37 DUB inh: 1.9; FGF22 binding: inactive; MLL AF4-AF9 inh: -21.2; T cruzi repl: -3.4; Ecoli rRNA inh: -0.7; Ecoli rRNA inh OD600: 6.7; Ecoli rRNA inh RFP: -6.5

Results for COCCN1Cc2cc3cc(C)ccc3nc2SC1=Nc1ccc(OC)cc1 ?
E coli growth: 0.714; Beta apoptosis: -4.5; Bfl-1 A1 inh: 1.1; UCH37 DUB inh: 2.6; FGF22 binding: inactive; MLL AF4-AF9 inh: 5.1; T cruzi repl: 43.5; Ecoli rRNA inh: 12.2; Ecoli rRNA inh OD600: 9.0; Ecoli rRNA inh RFP: 3.0

How did Cc1[nH]cnc1CSCCN do in these assays?
E coli growth: 0.76; Bfl-1 A1 inh: -0.1; UCH37 DUB inh: 1.0; T cruzi repl: -4.7

How did CC1=CC(c2ccccc2)n2nc(N3C(=O)CCC3=O)nc2N1 (stereo not given) do in these assays?
E coli growth: 0.733; Beta apoptosis: -4.0; Bfl-1 A1 inh: 0.4; UCH37 DUB inh: -442.5; T cruzi repl: -8.8

How did O=C(CCCN1C(=O)[C@H]2CC=CC[C@H]2C1=O)NCc1nc(-c2ccc(Cl)cc2)no1 do in these assays?
E coli growth: 0.682; Bfl-1 A1 inh: 0.1; UCH37 DUB inh: 5.5; FGF22 binding: inactive; MLL AF4-AF9 inh: -0.1; T cruzi repl: 14.2; Ecoli rRNA inh: -5.8; Ecoli rRNA inh OD600: -23.3; Ecoli rRNA inh RFP: 1.3

What do the screens show for `COc1ccccc1NC(=O)c1oc2ccc(C)cc2c1C`?
E coli growth: 0.699; Beta apoptosis: -5.8; Bfl-1 A1 inh: 0.2; UCH37 DUB inh: 0.7; T cruzi repl: -18.5

Results for Cc1ccc(S(=O)(=O)N2CCCCC2)cc1C(=O)NCc1ccccn1 ?
E coli growth: 0.645; Beta apoptosis: -4.2; Bfl-1 A1 inh: 0.0; UCH37 DUB inh: 0.8; FGF22 binding: inactive; MLL AF4-AF9 inh: -0.3; T cruzi repl: -3.6; Ecoli rRNA inh: -0.7; Ecoli rRNA inh OD600: 0.7; Ecoli rRNA inh RFP: -1.2

Results for O=C(C(=O)N1CCCC1)c1c(-c2ccccc2)[nH]c2ccccc12 ?
E coli growth: 0.648; Beta apoptosis: -4.2; Bfl-1 A1 inh: 0.5; UCH37 DUB inh: 3.3; FGF22 binding: inactive; MLL AF4-AF9 inh: -1.0; T cruzi repl: 0.3; Ecoli rRNA inh: 2.1; Ecoli rRNA inh OD600: -6.2; Ecoli rRNA inh RFP: -2.4

What do the screens show for `Cc1ccc(NC2=NCC(=O)N2Cc2cccs2)cc1C`?
E coli growth: 0.722; Beta apoptosis: 0.0; Bfl-1 A1 inh: 0.5; UCH37 DUB inh: 2.6; FGF22 binding: inactive; MLL AF4-AF9 inh: 0.6; T cruzi repl: 6.7; Ecoli rRNA inh: 3.4; Ecoli rRNA inh OD600: 1.3; Ecoli rRNA inh RFP: -1.2

How did COc1ccc([N+](=O)[O-])cc1NC(=O)N(C)Cc1ccco1 do in these assays?
E coli growth: 0.652; Beta apoptosis: -2.8; Bfl-1 A1 inh: 0.4; UCH37 DUB inh: 4.6; FGF22 binding: inactive; MLL AF4-AF9 inh: -0.5; T cruzi repl: -12.4; Ecoli rRNA inh: 8.1; Ecoli rRNA inh OD600: 13.6; Ecoli rRNA inh RFP: 0.2

How did CCN1C/C(=C/c2cccs2)c2nc3ccccc3c(C(=O)O)c2C1 do in these assays?
E coli growth: 0.705; Beta apoptosis: -7.6; Bfl-1 A1 inh: 0.2; UCH37 DUB inh: -0.5; FGF22 binding: active; MLL AF4-AF9 inh: 3.0; T cruzi repl: -7.0; Ecoli rRNA inh: 12.7; Ecoli rRNA inh OD600: -0.9; Ecoli rRNA inh RFP: -2.2

Results for CSc1c(-c2ccccc2)nc2ccccc2c1C(=O)O ?
E coli growth: 0.684; Beta apoptosis: 3.8; Bfl-1 A1 inh: -1.0; UCH37 DUB inh: 4.8; T cruzi repl: 5.1

What do the screens show for `O=C(NCc1cccc(Cl)c1)c1ccc(CS(=O)Cc2ccccc2Cl)o1` (stereo not given)?
E coli growth: 0.66; Beta apoptosis: -1.7; Bfl-1 A1 inh: -0.3; UCH37 DUB inh: -0.3; FGF22 binding: inactive; MLL AF4-AF9 inh: -2.3; T cruzi repl: 6.0; Ecoli rRNA inh: -15.4; Ecoli rRNA inh OD600: -27.3; Ecoli rRNA inh RFP: 24.2

Results for Cc1ccc(S(=O)(=O)NNC(=O)CCC(=O)Nc2ccccc2Cl)cc1 ?
E coli growth: 0.691; Beta apoptosis: -1.7; Bfl-1 A1 inh: 0.0; UCH37 DUB inh: 0.3; FGF22 binding: inactive; MLL AF4-AF9 inh: -1.8; Ecoli rRNA inh: 7.9; Ecoli rRNA inh OD600: 17.3; Ecoli rRNA inh RFP: -0.7

What do the screens show for `COc1ccc(CCNC(=O)CN2CCN(c3cccc(C(F)(F)F)c3)CC2)cc1`?
E coli growth: 0.695; Beta apoptosis: -2.6; Bfl-1 A1 inh: -0.9; UCH37 DUB inh: 2.6; T cruzi repl: -14.4

Results for O=C(O)CC(NS(=O)(=O)c1cccc2nsnc12)c1ccc(F)cc1 (stereo not given) ?
E coli growth: 0.719; Beta apoptosis: 0.5; Bfl-1 A1 inh: -1.5; UCH37 DUB inh: 6.9; T cruzi repl: -15.0; Ecoli rRNA inh: 19.4; Ecoli rRNA inh OD600: 16.4; Ecoli rRNA inh RFP: 1.8

Results for CN(C)CCCNC1CS(=O)(=O)CC1O (stereo not given) ?
E coli growth: 0.706; Beta apoptosis: 0.6; Bfl-1 A1 inh: -0.3; UCH37 DUB inh: 6.1; T cruzi repl: -17.5

What do the screens show for `O=C(C[n+]1ccccc1)c1ccc(NC(=O)c2ccccc2)cc1`?
E coli growth: 0.701; Beta apoptosis: 0.8; Bfl-1 A1 inh: -0.6; UCH37 DUB inh: 7.4; FGF22 binding: inactive; MLL AF4-AF9 inh: -2.8; T cruzi repl: 2.2; Ecoli rRNA inh: 12.2; Ecoli rRNA inh OD600: 21.2; Ecoli rRNA inh RFP: -0.6

How did CC(C)Nc1nc(Cl)nc(N(C#N)CN2C(=O)c3ccccc3S2(=O)=O)n1 do in these assays?
E coli growth: 0.686; Beta apoptosis: -2.6; Bfl-1 A1 inh: 0.4; UCH37 DUB inh: 5.0; FGF22 binding: inactive; MLL AF4-AF9 inh: -0.3; T cruzi repl: -8.7; Ecoli rRNA inh: 7.7; Ecoli rRNA inh OD600: -4.5; Ecoli rRNA inh RFP: -1.9

What do the screens show for `COc1ccc(N(CC(=O)N2CCCC(C)C2)S(=O)(=O)c2c(C)nn(C)c2C)cc1` (stereo not given)?
E coli growth: 0.785; Beta apoptosis: -8.1; Bfl-1 A1 inh: 0.6; UCH37 DUB inh: 0.6; FGF22 binding: inactive; MLL AF4-AF9 inh: -6.3; T cruzi repl: -5.1; Ecoli rRNA inh: -1.6; Ecoli rRNA inh OD600: -5.1; Ecoli rRNA inh RFP: -1.7

How did CC(=O)Nc1ccc(S(=O)(=O)Nc2nc(C)nc3sc4c(c23)CCC4)cc1 do in these assays?
E coli growth: 0.662; Beta apoptosis: -3.4; Bfl-1 A1 inh: 0.1; UCH37 DUB inh: 0.2; FGF22 binding: inactive; MLL AF4-AF9 inh: -11.7; T cruzi repl: -20.9; Ecoli rRNA inh: 6.3; Ecoli rRNA inh OD600: 1.8; Ecoli rRNA inh RFP: 7.7

Results for O=C(Cc1cccc2ccccc12)NC(NC(=S)Nc1ccccc1Cl)C(Cl)(Cl)Cl (stereo not given) ?
E coli growth: 0.69; Beta apoptosis: 18.3; Bfl-1 A1 inh: 0.3; UCH37 DUB inh: 4.5; T cruzi repl: 45.2

Results for Cc1cc(=O)n(C)c(=O)n1CCCCCN1CCCC1 ?
E coli growth: 0.747; Beta apoptosis: -5.0; Bfl-1 A1 inh: -0.2; UCH37 DUB inh: 3.3; T cruzi repl: 17.1

How did CCN(CC)C(=O)CSc1ncnc2c(-c3cccs3)nsc12 do in these assays?
E coli growth: 0.73; Beta apoptosis: 0.1; Bfl-1 A1 inh: -4.4; UCH37 DUB inh: -60.8

Results for CN=c1scc(-c2ccco2)n1/N=C/c1ccc(O)c(O)c1 ?
FGF22 binding: inactive; MLL AF4-AF9 inh: 25.5*; T cruzi repl: -24.4; Ecoli rRNA inh: -12.3; Ecoli rRNA inh OD600: -10.1; Ecoli rRNA inh RFP: -5.8

Results for O=C(CCN1CCCO1)N1CCCC(N2CCN(c3cccc(C(F)(F)F)c3)CC2)C1 (stereo not given) ?
E coli growth: 0.675; Beta apoptosis: -7.0; Bfl-1 A1 inh: 0.9; UCH37 DUB inh: 2.0; FGF22 binding: inactive; MLL AF4-AF9 inh: 0.1; T cruzi repl: 4.1; Ecoli rRNA inh: 1.9; Ecoli rRNA inh OD600: 1.2; Ecoli rRNA inh RFP: -1.0

What do the screens show for `CN(Cc1ccccc1)S(=O)(=O)c1csc(C(N)=O)c1`?
E coli growth: 0.693; Beta apoptosis: -8.0; Bfl-1 A1 inh: 0.0; UCH37 DUB inh: 5.0; FGF22 binding: inactive; MLL AF4-AF9 inh: -4.8; T cruzi repl: -15.7; Ecoli rRNA inh: 9.4; Ecoli rRNA inh OD600: 0.7; Ecoli rRNA inh RFP: 1.8

Results for O=C(CSc1ccc2nnc(-c3ccncc3)n2n1)Nc1ccc2c(c1)OCCO2 ?
E coli growth: 0.705; Bfl-1 A1 inh: 0.7; UCH37 DUB inh: 6.1; FGF22 binding: inactive; MLL AF4-AF9 inh: 1.1; T cruzi repl: -4.3; Ecoli rRNA inh: 1.8; Ecoli rRNA inh OD600: 3.3; Ecoli rRNA inh RFP: 1.1

How did COCCCNC(=O)CNC(=S)N(Cc1cc(OC)c(OC)c(OC)c1)C1CCCC1 do in these assays?
E coli growth: 0.654; Beta apoptosis: 0.7; Bfl-1 A1 inh: 0.1; UCH37 DUB inh: 0.4; T cruzi repl: 5.8

Results for CCCN1CCC(NC(=O)Cc2ccc(C)cc2)CC1 ?
E coli growth: 0.687; Beta apoptosis: -7.2; Bfl-1 A1 inh: 0.5; UCH37 DUB inh: 2.5; FGF22 binding: inactive; MLL AF4-AF9 inh: -0.5; T cruzi repl: 1.9; Ecoli rRNA inh: 4.9; Ecoli rRNA inh OD600: 5.6; Ecoli rRNA inh RFP: -2.7

What do the screens show for `Cc1ccc(Cn2ncc3c(N4CCN(c5ccccc5C)CC4)ncnc32)cc1`?
E coli growth: 0.739; Beta apoptosis: 2.1; Bfl-1 A1 inh: -0.2; UCH37 DUB inh: 0.3; T cruzi repl: 59.4*

A portion of the library; rates above refer to the full screens.
